Compound activity: PubChem, several laboratories
Beta2AR agonist: human beta-2 adrenergic receptor agonism by FAP | P07550 | Am2.2-beta2AR cells, FAP receptor internalization, flow cytometry; reference of the scale not given here | response, % (no concentration beside the values) | 0.43% of 340,000 active | AID 504454;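 active = response above a set limit, near 3 SD of response in nonfluorescent compounds, cut at about 42% in these data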;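 note: stock transfer was 100 nL into about 11 µL; a reference agonist was the positive control; negative values mostly stem from fluorescent compounds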
LANA-H2B inh: blocks KSHV LANA binding to histone H2A/H2B; 0.6% of 320,000 active; cell-free LANA-H2A/H2B peptide, fluorescence polarization; inhibition, % (test concentration not listed); in the data active = inhibition mostly above about 10%, no sharp cut-off; inactive = mostly below about 6.7%;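 note: stock transfer was 7.5 nL into about 10 µL; 0% = median of vehicle wells and 100% = median of positive control wells; one replicate is shown; the record names a cut of 25% in any replicate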
Target sequence (Q9QR71 whole entry, looked up): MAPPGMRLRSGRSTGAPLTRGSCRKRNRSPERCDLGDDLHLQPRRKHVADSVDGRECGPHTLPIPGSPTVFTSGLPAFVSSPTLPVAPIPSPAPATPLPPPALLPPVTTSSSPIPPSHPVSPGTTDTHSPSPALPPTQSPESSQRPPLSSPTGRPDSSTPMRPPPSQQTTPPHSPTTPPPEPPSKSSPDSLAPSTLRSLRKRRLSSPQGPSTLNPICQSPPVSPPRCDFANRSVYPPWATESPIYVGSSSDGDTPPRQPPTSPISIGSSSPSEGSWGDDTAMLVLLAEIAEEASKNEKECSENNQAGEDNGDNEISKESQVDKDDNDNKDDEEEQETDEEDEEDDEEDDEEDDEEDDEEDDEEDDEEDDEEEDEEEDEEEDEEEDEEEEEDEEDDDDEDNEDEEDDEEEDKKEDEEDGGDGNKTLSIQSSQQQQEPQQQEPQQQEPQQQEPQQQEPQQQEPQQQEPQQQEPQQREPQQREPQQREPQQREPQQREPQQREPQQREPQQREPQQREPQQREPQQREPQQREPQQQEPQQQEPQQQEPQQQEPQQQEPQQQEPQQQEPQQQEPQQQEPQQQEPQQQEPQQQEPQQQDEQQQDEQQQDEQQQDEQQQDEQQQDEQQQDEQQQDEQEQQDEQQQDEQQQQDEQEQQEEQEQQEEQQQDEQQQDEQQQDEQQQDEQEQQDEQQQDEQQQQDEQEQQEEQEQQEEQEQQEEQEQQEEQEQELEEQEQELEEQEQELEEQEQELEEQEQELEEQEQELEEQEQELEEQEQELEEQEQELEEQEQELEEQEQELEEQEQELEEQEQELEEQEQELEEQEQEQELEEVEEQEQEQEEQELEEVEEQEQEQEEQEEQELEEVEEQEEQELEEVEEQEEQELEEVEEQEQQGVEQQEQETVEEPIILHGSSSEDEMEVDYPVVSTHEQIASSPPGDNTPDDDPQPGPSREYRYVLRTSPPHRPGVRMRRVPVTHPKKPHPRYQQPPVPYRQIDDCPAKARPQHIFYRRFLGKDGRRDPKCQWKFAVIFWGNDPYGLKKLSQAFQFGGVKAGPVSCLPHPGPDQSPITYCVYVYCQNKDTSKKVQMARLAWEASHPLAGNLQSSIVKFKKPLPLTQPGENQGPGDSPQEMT
Ecoli growth: inhibitors of Escherichia coli growth. OD600, 23 h; hits give low values. OD600 absorbance (concentration not given with the values). 0.21% of 330,000 active;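 active = OD600 absorbance below the run mean of sample wells minus 3.6 SD, in any replicate, cut at about 0.56 in these data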;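 note: stock transfer was 300 nL into about 60 µL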
Vif A3G: inhibitors of Vif binding to APOBEC3G peptide, primary screen, biochemical, TR-FRET, GST-Vif 1-94, biotin-A3G peptide, dose response retest (AID 1117319) | 0.57% of 260,000 active | TR-FRET GST-Vif / biotin-A3G peptide binding; higher % means a stronger effect; test concentration not given here; strong numbers were not always called active | inhibition, %, or IC50 in µM where a hit was titrated;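 active = above the screen mean plus three standard deviations and confirmed in dose response; inconclusive = results disagree or hit not tested in dose response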;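 note: Vif residues 1-94 fused to GST binding biotinylated APOBEC3G peptide 110-148; 0% = full assay without inhibitor and 100% = GST in place of GST-Vif; retest series ran down from 100 µM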
UCH37 inh: human UCH37 deubiquitinating enzyme inhibition; purified proteasome/UCH37, Ub-AMC cleavage fluorescence; inhibition, % (no concentration beside the values); 0.33% of 330,000 active;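 active = mean of two replicates above 20%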;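 note: 0% = compound-free wells with enzyme and 100% = wells lacking proteasome; stock transfer was 100 nL into about 20 µL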
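Material: Human UCH37 enzyme supplied as purified proteasome complex | Schedule: 30 min preincubation with enzyme, 25 min cleavage at room temperature | Detection: AMC fluorescence 355/460 nm | Measure: % inhibition of Ub-AMC cleavage fluorescence | Controls: Wells without proteasome as full block, compound-free enzyme plus substrate as uninhibited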
HNF4A DNA FP: change in binding of human HNF4 alpha to DNA | P41235 | HNF4a-FITC DNA binding, fluorescence polarization, 1 h | 0.3% of 360,000 active | AID 1224865 | activity change, % at 10 µM; in the data active = activity change above about 30%, passing the limit was not always enough;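 note: controls were the assay level and a saturating level of protein; the project sought stronger binding though the title names inhibitors; some compounds called inactive have numbers as strong as hits; positive values seem to mean higher polarization but the record does not say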
Bfl-1 A1 inh: inhibitors of the anti-apoptotic protein A1, read as caspase activation. MEF A1-2A-BIM cells, Caspase-Glo 3/7 luminescence, 3 h; percent of clofoctol response, vehicle zero. caspase activation, % (concentration not given with the values). 0.066% of 330,000 active. AID 2462;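 active = over half of replicate activation scores above 10%, or exactly half above 10 with the replicate mean above 10; inconclusive = replicate mean below 10 yet half the replicates above 10; inactive = over half of replicates below 10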;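 note: wells of about 30 µL received 50 nL stock; many hits fall short of the cut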
The depositor's hits bear a star; i = inactive; u = inconclusive; x = no result given; & = joins results of further samples.

Screens in order – Beta2AR agonist	LANA-H2B inh	Ecoli growth	Vif A3G	UCH37 inh	HNF4A DNA FP	Bfl-1 A1 inh
> CCN(CC)S(=O)(=O)c1cccc(-c2n[nH]c(=S)n2/N=C/c2ccc(C(=O)OC)cc2)c1
    -5	2.9	x	x	x	-0.6	0.7
> Cn1nnc(NCc2cc(Br)ccc2OCc2ccccc2F)n1
    -6	-17	0.7	0%	2.9	-1.0	0.2
> COC(=O)c1cn(Cc2cc(OC)ccc2OC)cc(F)c1=O
    -5	0.4	0.7	1%	2.8	-0.6	-0.1
> CC1=CC=CN2C1=NC(=O)CC2(C)C(=O)N(CC(=O)NC1CCCC1)c1ccccc1C (stereo not drawn)
    3	-4.4	0.65	5%	i	-1.5	1.3
> C=CCOc1ccc(C(=O)O)cc1Cl
    6	4.2	0.7	x	1.5	-3.0	-0.4
> CCOc1cc(/C=N/NC(=O)c2cc(C)[nH]n2)ccc1OC(=O)c1ccc([N+](=O)[O-])cc1
    x	6.1	x	12%	x	x	0.5
> CN1CCN(C(=O)/C=C/c2ccccc2)CC1
    6	-0.3	0.69	x	2.5	-2.0	1.7
> Cc1cc(/C=C(/C#N)C(=O)O)c(C)n1-c1cccc2ccccc12
    2	-0.8	0.69	2%	14	-4.3	3.3
> CCOC(=O)C1CN(S(=O)(=O)c2ccc(C)cc2)c2cc(S(=O)(=O)CC)ccc2O1 (stereo not drawn)
    0	4.4	0.7	-2%	2.3	0.2	-0.1
> O=C1NC(c2ccccc2Cl)=N/C1=C/c1ccco1
    -5	1.8	0.68	u	0.3	1.7	-1.8
> COc1ccc(CC2S/C(=N/N=C/c3ccccc3O)NC2=O)cc1 (stereo not drawn)
    -7	2.3	x	0%	x	-3.1	0.1
> COC(=O)CC1C(=O)NCCN1C(=O)c1ccccc1 (stereo not drawn)
    1	3.6	0.73	-7%	-2.1	0.1	-1.4
> COC(=O)c1cc(NC(=O)c2ccc([N+](=O)[O-])cc2)c(=O)oc1C
    -2	13*	0.68	0%	0.9	-3.4	-0.8
> CCS(=O)(=O)N1CCC(NC(=O)C(Cc2cccc(OC)c2OC)NC(C)=O)CC1 (stereo not drawn)
    2	x	0.64	x	1.7	1.5	x
> CC(=O)NC(=O)COC(=O)/C=C/c1c(C)nn(Cc2c(Cl)cccc2Cl)c1Cl
    0	x	0.77	16%	4.2	1.7	0.3
> Cn1cccc1-c1nc2ccccc2n1C
    -9	0.2	0.67	-7%	-3.5	-2.4	-1.1
> COc1ccc(-c2noc3c2-c2nc(-c4ccc(Cl)cc4)sc2CC3)cc1
    -4	0.6	0.73	x	-3.6	-0.2	-0.5
> Cc1cc(C)nc(N(C#N)CC(=O)c2ccccc2)n1
    -28	-2.3	0.66	u	5.5	0.8	-0.1
> COC(=O)c1cc2c(N)c(C(=O)c3ccccc3)sc2nc1C(OC)OC
    -2	0.6	0.69	x	1.8	3.8	0.9
> O=C(CN1CCCC1)Nc1c2c(nc3ccccc13)N(Cc1ccccc1)CC2
    -12	-0.7	0.66	9%	-66	-5.4	-0.2
> COc1cc2nc(CN3CCN(S(=O)(=O)c4ccccc4C(F)(F)F)CC3)[nH]c(=O)c2cc1OC
    0	1.5	0.65	1%	0.2	2.5	-1.2
> C=CCc1c(OC)ccc2ccc(=O)oc12
    -5	-4.4	0.65	-2%	-72	-2.0	0.2
> COC(=O)c1ccc(N2CCN(C(C)=O)CC2)c(NC(=O)c2cccnc2)c1
    0	-1.7	0.64	5%	1.9	0.2	-1.2
> Clc1ccc(COn2nnc3ccccc32)c(Cl)c1
    -8	2.7	0.66	3%	1.8	0.8	0.3
> CCOc1ccccc1-n1c(SCC(=O)N2CCOCC2)nc2ccccc2c1=O
    3	-1.4	0.7	-4%	0.3	1.5	0.1
> Cc1nc(CSc2ccc(Cl)cc2)cs1
    -12	0.3	0.64	0%	0.4	-0.6	-3.0
> Fc1ccc(/C=N/n2cnn(Cc3ccccc3Cl)c2=S)cc1
    1	-5.3	x	x	x	1.5	1.4
> CC(C)[C@H](NC(=O)OCc1ccccc1)C(=O)OCC(=O)NC1CCCCC1
    1	1.9	0.69	16%	3.0	-0.6	0.4
> C=CC[C@@H](CC(=O)OC(C)(C)C)C(=O)OC[C@@H]1CCCN1C(=O)[C@H](CC=C)CC(=O)NCCO
    1	x	0.69	6%	-2.0	0.9	-0.1
> Cc1cc(NC(=O)c2ccccc2)c(Cl)cc1N
    -8	x	0.64	-2%	2.6	2.8	x
> COc1ccccc1-n1c(CNC(=O)c2ccco2)nnc1SCC(=O)Nc1cc(C)ccc1C
    -18	-5.6	0.73	1%	1.7	0.6	1.4
> Cc1ccc(N(Cc2ccc(C(=O)Nc3c(C)n(C)n(-c4ccccc4)c3=O)cc2)S(C)(=O)=O)cc1C
    -4	1.7	0.67	-1%	2.1	0.6	-0.1
> O=C(CSc1nnc2scc(-c3ccccc3)n12)Nc1nsc(-c2ccccc2)n1
    -7	-5.5	0.74	-36%&-29%	3.5	10	0.3
> CCCOc1ccccc1C(=O)N1CCNC(=O)C1CC(=O)OC(C)C (stereo not drawn)
    -10	2.3	0.65	x	3.7	-0.6	0.5
> Cc1ccc(-n2nnnc2SCC(=O)NC2CCCc3ccccc32)cc1 (stereo not drawn)
    5	4.4	0.66	x	-2.9	0.1	-0.1
> Cc1nc(COc2ccc(C(=O)Nc3ccccc3N3CCOCC3)cc2)cs1
    -7	1.9	0.71	x	5.9	-0.6	-0.6
> Cc1ccccc1S(=O)(=O)Oc1cccc2c(O)cccc12
    6	-5.0	0.69	0%	3.8	1.6	1.0
> CCC1CCCCN1S(=O)(=O)c1ccc(C(=O)Nc2nnc(C3CC3)o2)cc1 (stereo not drawn)
    9	3.1	0.73	x	-2.8	-1.6	-1.7
> Cc1cccc(N2CCN(S(C)(=O)=O)CC2)c1C
    5	1.3	0.72	8%	2.3	4.0	-0.2
> CC(C)(CNC(=O)c1cc([N+](=O)[O-])ccc1N1CCC(Cc2ccccc2)CC1)N1CCOCC1
    11	1.4	0.7	-4%	7.1	1.7	-1.1
> O=C(Nc1ccccc1)Nc1ccc(NC(=O)c2ccccc2O)cc1
    -1	0.0	0.67	-4%	-2.2	0.6	-1.5
> Cc1ccc2oc(-c3cccc(NC(=S)NC(=O)/C=C/c4ccco4)c3)nc2c1
    -2	-7.4	0.71	u	7.3	3.1	-0.6
> COc1ccc(N2CCN(C(=O)CCc3ccc(S(=O)(=O)NC(C)(C)C)cc3)CC2)cc1
    2	3.8	0.67	14%	1.8	-0.2	0.8
> COc1cc(C(=O)Nc2cnc(NC(=O)C(C)C)cc2C)cc(OC)c1OC
    -4	-0.1	0.73	-5%	0.0	3.5	1.1
> O=C(CSc1nc2ccccc2c(=O)[nH]1)Nc1ccc([N+](=O)[O-])cc1
    1	-1.1	0.74	1%	3.3	-0.5	-0.4
> O=C(COc1cccc(Br)c1)NN=C1c2ccccc2-c2ccccc21
    0	x	0.71	x	0.9	-2.4	0.9
> Cc1ccc(-c2cc(C(=O)N/N=C/c3c(C)nn(C)c3C)c3ccccc3n2)cc1C
    13	-3.8	x	-7%	x	-1.8	-0.5
> CCCCC(=O)N/N=C/c1ccc(N2CCOCC2)c([N+](=O)[O-])c1
    -10	14	x	1%	x	3.5	0.4
> O=C(CCCN1C(=O)C(c2ccccc2)Oc2cccnc21)NCc1ccccc1Cl (stereo not drawn)
    5	9.1	0.71	-2%	2.8	3.2	0.5
> COc1ccsc1C(=O)NCCN1CCOCC1
    8	-3.0	0.69	x	1.7	-1.6	0.6
> CCOC(=O)C1=C(C)NC(=O)NC1c1ccco1 (stereo not drawn)
    6	7.5	0.72	26%	2.2	0.9	0.0
> Cc1cccc(N2CCN(S(=O)(=O)c3ccc4c(c3)CCN4C(=O)CCC(=O)O)CC2)c1C
    2	8.8	0.73	7%	5.0	2.0	0.7
> COc1ccc(Cl)cc1NC(=O)C(C)N1CCN(c2ccccn2)CC1 (stereo not drawn)
    -7	3.2	0.63	0%	-0.5	1.9	-0.3
> NC(=S)N/N=C1\c2ccccc2-c2c(C(=O)O)cccc21
    1	1.5	x	9%	x	0.0	0.4
> Cc1cccc(/C=N/NC(=O)C2CCCNC2=O)c1 (stereo not drawn)
    -1	-4.4	x	-5%	x	2.6	-0.2
> Cc1c(OCc2nn[nH]n2)ccc2c3c(c(=O)oc12)CCCC3
    -12	0.0	0.66	1%	-149	-0.1	0.7
> CN(C)c1cncc(C(=O)O)c1
    1	2.8	0.72	-3%	-7.8	0.4	0.7
> COc1ccc([C@@H]2[C@@H]3C(=O)N(C(C)(C)C)C(=O)[C@@H]3[C@]3(Cc4ccc(Cl)cc4)C(=O)N(c4ccc(Br)cc4)C(=O)N23)cc1
    -5	-2.2	x	x	4.9	-3.9	0.5
> Cc1ccc(C)c(CN2CCC(CNC(=O)Nc3ccc(C)c(F)c3)CC2)c1
    23	-3.0	0.61	-7%	6.3	1.0	-0.1
> O=C(Cc1ccccc1)Nc1c(C(=O)N2CCOCC2)cnn1-c1ccccc1
    -3	2.1	0.66	2%	5.0	1.6	-0.2

Remaining list, next part:
Screens in order – Beta2AR agonist	LANA-H2B inh	Ecoli growth	Vif A3G	UCH37 inh	HNF4A DNA FP	Bfl-1 A1 inh
> O=C(CNC(=O)c1ccco1)NCC(=O)OCc1ccc(Cl)cc1Cl
    -3	-3.2	0.66	x	1.0	0.8	0.5
> COc1ccc(/C=N/OCC(=O)Nc2nc3ccccc3s2)cc1
    12	-0.5	x	u	x	3.2	0.9
> O=C(CN1C(=O)NC2(CCCC2)C1=O)Nc1ccccc1F
    -3	27*	0.71	6%	-0.4	-2.3	1.2
> CCCN(C(=O)COC(=O)CSc1ccc(C(N)=O)cc1[N+](=O)[O-])C1CCS(=O)(=O)C1 (stereo not drawn)
    -10	x	0.66	-2%	4.2	2.5	x
> O=C(Cn1cnc2c(OCc3ccccc3)ncnc21)NCCc1c[nH]c2ccccc12
    1	x	0.66	-1%	1.0	1.2	x
> Cc1ccccc1CSc1nnc(-c2ccccn2)n1C
    4	0.9	0.68	-2%	1.7	-5.4	-0.6
> Fc1ccccc1-c1nc(-c2ccc(Br)o2)no1
    0	2.6	0.68	-9%	4.4	2.5	-7.6
> Cc1cc(NC(=O)Cn2nnc3sc4c(c3c2=O)CCCC4)no1
    -21	5.8	0.63	25%	0.4	3.8	0.5
